# Calb FLC = C. albicans growth modulation with fluconazole | actives 0.57% (n = 300,000) | C. albicans CaCi-2 (fluconazole-resistant clinical isolate) + fluconazole, Alamar Blue growth, 48 h | growth inhibition, % (no concentration beside the values);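 active means most replicates above 75%; inconclusive means exactly half above 75%; inactive means most below 75%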;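 further: all wells also contain fluconazole at 8 µg/ml as a sub-toxic cotreatment; 0% = median of DMSO wells and 100% = median of geldanamycin control wells; wells of about 8 µL received 7.5 nL stock; the first replicate is given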
# RanGTP-Imp inh = inhibitors of RanGTP-importin-beta interaction, primary screen, biochemical, FRET, CFP-Ran, YFP-importin-beta, homogeneous; cell-free CFP-Ran/YFP-importin-beta FRET ratio; inhibition, % (no concentration beside the values); actives 1.1% (n = 300,000); AID 2216;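 active means most replicates above 15%; inconclusive means exactly half above 15%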;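 further: 0% = DMSO wells and 100% = Ran loaded with GDP instead of GTP; wells of about 40 µL received 100 nL stock; the first replicate is given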
# MLL AF4-AF9 inh = blocks AF4 peptide binding to human AF9 | P42568 | AlphaScreen, biotin-AF4 peptide binding to FLAG-AF9 | inhibition, % at 10 µM | actives 0.47% (n = 350,000);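 active means every replicate reaching a set inhibition limit, whatever the replicate mean, cut at about 25% in these data; inconclusive means mean inhibition reaches that limit but some replicates miss it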;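 further: 0% = plate neutral control median and 100% = total signal loss; the record names both 10 and 1 µM as test concentration; the first replicate is given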
# Target sequence (P42568 whole entry, looked up): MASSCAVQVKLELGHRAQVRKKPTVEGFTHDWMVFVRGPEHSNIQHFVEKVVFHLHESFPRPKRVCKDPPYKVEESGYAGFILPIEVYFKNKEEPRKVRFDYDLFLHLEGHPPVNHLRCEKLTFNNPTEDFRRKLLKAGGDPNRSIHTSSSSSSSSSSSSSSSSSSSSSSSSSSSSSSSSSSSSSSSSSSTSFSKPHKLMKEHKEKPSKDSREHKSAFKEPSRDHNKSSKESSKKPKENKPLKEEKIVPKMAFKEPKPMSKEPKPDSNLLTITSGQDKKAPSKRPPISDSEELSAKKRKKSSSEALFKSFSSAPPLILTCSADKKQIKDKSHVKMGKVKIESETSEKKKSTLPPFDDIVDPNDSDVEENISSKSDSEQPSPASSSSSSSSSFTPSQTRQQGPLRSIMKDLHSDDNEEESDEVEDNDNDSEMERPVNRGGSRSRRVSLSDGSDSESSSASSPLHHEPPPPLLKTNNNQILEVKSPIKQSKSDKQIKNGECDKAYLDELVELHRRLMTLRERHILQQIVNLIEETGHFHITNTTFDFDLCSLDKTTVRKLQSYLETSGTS
# Vif A3G = inhibitors of Vif binding to APOBEC3G peptide, primary screen, biochemical, TR-FRET, GST-Vif 1-94, biotin-A3G peptide, dose response retest (AID 1117319) | TR-FRET GST-Vif / biotin-A3G peptide binding; higher % means a stronger effect; test concentration not given here; strong numbers were not always called active | one-dose inhibition, %; IC50 in µM for titrated hits | actives 0.57% (n = 260,000);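 active means above the screen mean plus three standard deviations and confirmed in dose response; inconclusive means results disagree or hit not tested in dose response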;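 further: Vif residues 1-94 fused to GST binding biotinylated APOBEC3G peptide 110-148; 0% = full assay without inhibitor and 100% = GST in place of GST-Vif; retest series ran down from 100 µM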
# T cruzi inh = blocks replication of Trypanosoma cruzi. T. cruzi beta-gal in NIH3T3, luminescence, 90 h. inhibition, % (test concentration not listed). actives 1.4% (n = 300,000). AID 1885;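 active means mean inhibition across valid replicates above about 55%, limit read from the data; inconclusive means mean below that limit but half or more replicates reach it; inactive means mean below it, under half of replicates reach it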;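 further: signal also drops with host cell toxicity which is not excluded here; 0% = plate median of DMSO wells and 100% = zero luminescence signal; higher percent means less beta-gal luminescence so fewer parasites; stock transfer was 50 nL into about 50 µL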
# rRNA inh HTS = selective bacterial rRNA inhibition in E. coli; E. coli WT GFP vs humanized-ribosome RFP mutants, fluorescence, 24 h; stronger effect = lower value; DMSO median 0, no signal -100; actives 1.6% (n = 350,000); GFP signal change (wild-type ribosome), % (no concentration beside the values); AID 720706;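 active means significant combined selectivity score with lowered wild-type GFP, culture density cut under 30%, mutant RFP and density less affected; inactive means any of these conditions unmet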; further: one replicate is shown; some compounds called inactive have numbers as strong as hits
# Beta apoptosis = blocks beta cell apoptosis; INS-1E cytokine-induced death, ATP luminescence, 48 h; percent of positive-control rescue, neutral wells zero; protection from apoptosis, % (concentration not given with the values); actives 0.8% (n = 300,000); AID 435005;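 active means all replicates at 75% or more, or half of them and the mean; inconclusive means half reach 75% but not the mean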;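 further: 0% = cytokine-treated negative control wells and 100% = positive control rescue; higher means more ATP so stronger rescue from cytokine killing; wells of about 40 µL received 100 nL stock; the first replicate is given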
# A1 inh = inhibitors of the anti-apoptotic protein A1, read as caspase activation. MEF A1-2A-BIM cells, Caspase-Glo 3/7 luminescence, 3 h; percent of clofoctol response, vehicle zero. caspase activation, % (no concentration beside the values). actives 0.066% (n = 330,000);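 active means over half of replicate activation scores above 10%, or exactly half above 10 with the replicate mean above 10; inconclusive means replicate mean below 10 yet half the replicates above 10; inactive means over half of replicates below 10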;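 further: wells of about 30 µL received 50 nL stock; many hits fall short of the cut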
# rRNA inh HTS OD600 = recorded beside rRNA inh HTS, whose call it bears; OD600 change, %; measured here: OD600 growth;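 optical density of the mix in the first replicate; 0 = DMSO median and -100 = no signal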
# rRNA inh HTS RFP = recorded beside rRNA inh HTS, whose call it bears; RFP signal change, %; measured here: RFP humanized mutant strains;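 first replicate; 0 = DMSO median and -100 = no signal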
# * = called active by the depositor; u = inconclusive; x = not tested or not shown. Not all compounds are listed; count on the stated rates, not on these rows.
SMILES,Calb FLC,RanGTP-Imp inh,MLL AF4-AF9 inh,Vif A3G,T cruzi inh,rRNA inh HTS,rRNA inh HTS OD600,rRNA inh HTS RFP,Beta apoptosis,A1 inh
CCCCCNCC(=O)Nc1cccc(C(=O)Nc2cccc(C(F)(F)F)c2)c1,-15,1.5,6.9,u,19,-52,-81,-14,32,-1.2
COc1ccc(/C=N/NC(=O)c2snnc2C)c(OC)c1OC,0,2.7,-7.2,x,1,9,11,1.8,-5,-0.8
CN1C(C(=O)NCCc2cccs2)CC2Cn3c(nc4cc5ccccc5cc43)C21 (stereo not given),-17,-3.8,3.5,1%,3,-2,8,1.7,0,0.7
COC(=O)CN1C(=O)[C@H]2[C@@H](/C=C/c3ccccc3)N3C(=O)CN(CC4CC4)C(=O)[C@@]3(Cc3ccccc3)[C@H]2C1=O,4,-0.9,-1.1,x,-2,12,7,-11,-4,-0.2
COc1ccc(N2CCN(C(=O)CN(C3CCCCC3)S(C)(=O)=O)CC2)cc1,23,4.8,0.3,4%,11,2,4,-1.6,2,-0.9
NC(=O)CC[C@@H]1NC(=O)[C@@H]2CCCN2C(=O)c2cc([N+](=O)[O-])cc(I)c2NCCC[C@@H](C(=O)NC(CC(=O)O)C(N)=O)NC1=O (stereo not given in full),x,x,0.1,-6%,x,0,8,-0.6,-3,0.4
C/C(=N\OC(=O)c1ccc(Cl)cc1)c1nccs1,-11,1.0,x,-2%,-21,x,x,x,1,0.9
NC(=O)COc1ccc(C2c3c(oc4ccccc4c3=O)C(=O)N2CC2CCCO2)cc1 (stereo not given),-11,1.3,x,1%,-3,x,x,x,-3,1.7
Cc1ccc(O)c(-c2cc(-c3cccc(F)c3)n[nH]2)c1,11,3.2,x,u,5,x,x,x,15,-0.4
Cc1cccc(NC(=O)Cn2c(O)c(N=NC(=O)c3ccncc3)c3ccccc32)c1,5,-2.9,-1.3,-11%,-10,12,-5,0.3,-4,0.5
CCOC(=O)C1(Cc2cccc(Cl)c2)CCCN(C(=O)c2occc2C)C1 (stereo not given),1,1.2,-1.6,x,17,-15,-33,-2.7,x,0.1
O=C1CCCCC1Sc1nnc(-c2ccc3c(c2)OCO3)o1 (stereo not given),-7,4.5,-3.3,6%,-22,-17,-25,-3.5,2,-9.9
COCCNC(=O)c1onc(CSc2ccccc2)c1C(=O)NCCOC,-6,-2.3,-30,x,-2,15,9,-7.0,2,0.2
Cc1ccc(CNC(=O)c2ccc(N3CCC4(CC3)CC(c3ccccc3)=NO4)c(NC(=O)c3ccccc3)c2)cc1,-3,4.2,-4.4,x,11,5,6,-4.9,15,0.4
Cc1ccc2c(c1)N(S(=O)(=O)c1cc(-c3cc(C)no3)ccc1C)CCO2,5,3.8,-0.4,0%,11,-22,-25,-6.2,1,0.2
CC(C)Oc1ccc(Br)cc1/C=N\NC(N)=S,-36,1.2,x,-4%,-3,x,x,x,0,2.0
COc1ccc(-c2cc(=O)c3cc(OC)c(OC)cc3[nH]2)cc1,33,-0.2,-7.3,-4%,-20,2,11,12,0,-2.0
CCc1cccc(CC)c1NC(=O)CSc1nnc(CCC(=O)O)c(=O)[nH]1,1,-0.1,-1.4,10%,-9,22,25,2.3,-7,0.0
CCNC(=S)N(CCO)Cc1cc2cc3c(cc2[nH]c1=O)OCO3,0,-15,2.6,x,-1,1,5,-0.5,x,-0.6
CCOC(=O)N1CCN(c2nc(=S)n(-c3ccccc3)c(C)c2C(C)=O)CC1,42,-2.1,x,-4%,-3,x,x,x,0,2.3
CC(C)c1cc(=O)n2[nH]c(SCc3ccccc3Cl)nc2n1,57,-0.2,-2.0,-3%,-6,-6,3,2.6,-2,0.3
Cc1ccc(S(=O)OCC(=O)Nc2cc(Cl)ccc2N2CCOCC2)cc1 (stereo not given),8,0.1,x,6%,0,x,x,x,8,-0.4
COc1ccc(S(=O)(=O)NCC(=O)Nc2ccc(F)cc2)cc1,x,x,-0.9,-2%,x,x,x,x,0,0.9
Cc1c(Cl)cccc1NC(=S)N(Cc1ccccc1)Cc1cccnc1,-6,-2.0,0.9,3%,18,-17,-10,-1.1,-4,-0.5
O=C(NC1CCOC1)c1cc(COc2cccc(C(F)(F)F)c2)on1 (stereo not given),-1,2.1,-1.5,0%,4,2,9,-2.3,-2,-1.5
Fc1ccc(-c2ccnc(=S)[nH]2)cc1,-1,-0.2,-13,3%,-12,-1,10,4.1,-5,-0.6
O=C(CC1C(=O)N(c2ccccc2)C(=S)N1c1ccccc1)c1ccc(Br)cc1 (stereo not given),-7,1.9,-0.4,20%,-1,9,2,2.4,-5,u
Cc1ccc(S(=O)(=O)N(CC(=O)N2CCCCC2)c2cccc(C)c2)cc1,0,5.0,x,2%,6,x,x,x,-3,-0.4
O=C(NCCS(=O)(=O)N1CCC2(CC1)OCCO2)c1ccccc1,-4,2.1,-2.9,-2%,-4,10,7,-1.5,3,-0.2
O=C(C(=O)N1CCN(c2ccccc2F)CC1)c1cn(CC(=O)N2CCOCC2)c2ccccc12,-1,0.7,-1.2,x,-5,10,-3,3.5,-5,0.1
COc1ccc(Cl)cc1NC(=O)C/C(C)=N/NC(=O)CC#N,-8,3.1,x,3%,7,x,x,x,-5,-1.0
O=S(=O)(NC1CCN(S(=O)(=O)c2ccc3c(c2)OCCO3)C1)c1c(F)cccc1F (stereo not given),x,x,-3.0,x,x,-7,-7,-2.0,-7,-1.7
COCc1cc(C)nc(SCC(=O)N2CCC(C)CC2)c1C#N,-15,-0.7,x,2%,15,x,x,x,-6,0.4
CCCCCCN(C(=O)CCl)c1ccccc1,4,0.9,1.0,x,18,7,8,4.4,32,0.4
O=C(CSc1nnc(-c2cccnc2)o1)Oc1ccccc1,0,5.6,x,3%,-8,x,x,x,-9,0.4
COc1ccc(-c2csc(NC(=O)CS(=O)(=O)c3ccc(F)cc3)n2)cc1OC,-2,1.8,-1.0,-3%,-1,-13,-26,0.1,4,0.7
COc1ccccc1NC(=O)CSc1nnc(-c2ccccn2)n1Cc1ccco1,8,-2.0,x,10%,0,x,x,x,2,-0.6
COc1ccccc1CN1CCNC(=O)C1CC(=O)NCc1csc(C)n1 (stereo not given),20,4.8,-0.4,-6%,2,11,15,1.4,-9,1.2
CCOc1ccc(Br)cc1S(=O)(=O)NCCN(C)C,-1,2.5,x,17%,-19,2,11,-2.5,-3,0.6
CCOC(=O)Nc1c(Cl)n(C)c(=O)n(C)c1=O,-3,1.9,-2.0,4%,17,16,13,0.3,-2,0.6

# An excerpt from further up:
SMILES,Calb FLC,RanGTP-Imp inh,MLL AF4-AF9 inh,Vif A3G,T cruzi inh,rRNA inh HTS,rRNA inh HTS OD600,rRNA inh HTS RFP,Beta apoptosis,A1 inh
O=C(CSc1nnc(-c2cccnc2)o1)Oc1ccccc1,0,5.6,x,3%,-8,x,x,x,-9,0.4
COc1ccc(-c2csc(NC(=O)CS(=O)(=O)c3ccc(F)cc3)n2)cc1OC,-2,1.8,-1.0,-3%,-1,-13,-26,0.1,4,0.7
COc1ccccc1NC(=O)CSc1nnc(-c2ccccn2)n1Cc1ccco1,8,-2.0,x,10%,0,x,x,x,2,-0.6
COc1ccccc1CN1CCNC(=O)C1CC(=O)NCc1csc(C)n1 (stereo not given),20,4.8,-0.4,-6%,2,11,15,1.4,-9,1.2
CCOc1ccc(Br)cc1S(=O)(=O)NCCN(C)C,-1,2.5,x,17%,-19,2,11,-2.5,-3,0.6
CCOC(=O)Nc1c(Cl)n(C)c(=O)n(C)c1=O,-3,1.9,-2.0,4%,17,16,13,0.3,-2,0.6

# Remaining list, next part:
SMILES,Calb FLC,RanGTP-Imp inh,MLL AF4-AF9 inh,Vif A3G,T cruzi inh,rRNA inh HTS,rRNA inh HTS OD600,rRNA inh HTS RFP,Beta apoptosis,A1 inh
Cc1cc(Br)ccc1NC(=O)CN(C)C(=O)C1=COCCO1,x,x,1.8,x,x,8,12,-0.8,-5,-1.1
Oc1ccc(N2CCN(Cc3cc4c(cc3Br)OCCO4)CC2)cc1,1,0.1,12,x,42,-9,-4,0.0,1,0.1
Cc1ccc(C(=O)NCC(=O)OCCOc2ccccc2Cl)cc1,-15,0.9,8.2,8%,-8,2,-6,0.4,x,-0.3
CCOC(=O)CNC(=O)CSc1nnnn1-c1ccc(C)c(C)c1,1,-1.1,x,-6%,-3,x,x,x,-1,1.2
COc1ccc(NC(=O)Nc2ccc(Cc3ccncc3)cc2)c(OC)c1,21,1.1,0.6,11%,44,-9,-4,9.6,2,1.2
Cc1cc(NC(=O)CCCn2cnc([N+](=O)[O-])n2)no1,-8,0.4,-5.5,-10%,58*,6,3,-7.8,1,-0.3
COc1cc(C)c(Cl)cc1S(=O)(=O)n1cnc(C)c1,-13,1.6,1.8,4%,1,24,3,3.5,-4,-0.7
Cc1ccc(NC(=O)CSc2nc(=O)cc(N)n2CCc2ccccc2)cc1,18,1.3,0.6,-1%,6,-14,-10,11,-4,-0.1
Cc1ccc(S(=O)(=O)NCc2ccccc2)cc1C(=O)NCCc1ccc(S(N)(=O)=O)cc1,x,x,0.6,-3%,x,4,6,2.1,2,-0.3
O=C(OCC(=O)N1N=C(c2ccc(Cl)cc2)CC1c1ccco1)c1cncc(Br)c1 (stereo not given),x,x,0.3,-1%,x,-3,-5,1.7,0,-0.4
CC(NC(=O)COc1ccc(/C=N/NC(=O)C(=O)Nc2ccccc2Br)cc1)c1ccccc1 (stereo not given),1,1.1,x,1%,-11,x,x,x,3,-0.4
Cc1sc(NC(=O)C2=COCCO2)c(C#N)c1C,17,1.4,-13,6%,6,4,6,4.0,-2,-3.7
COc1cc(/C=C(\NC(C)=O)C(=O)N2CCCCC2)ccc1OC(C)=O,-5,-1.6,4.7,x,-5,16,12,2.2,-2,0.0
Cc1cc(C)c(-c2nc3ccccc3s2)[nH]1,2,9.2,2.9,x,-1,4,-3,0.9,2,-6.7
O=C(COC(=O)c1cc2c(s1)CCCC2)NCc1ccccc1Cl,-3,0.3,-0.9,-9%,-19,x,x,x,-7,0.6
Cc1ccc(Cl)cc1-n1c(SCC(=O)NCCC2=CCCCC2)nc2n[nH]c(C)c2c1=N,u,5.4,-1.4,x,31,6,3,-1.7,4,0.9
Cc1ccc2cc(CN(Cc3ccc4c(c3)OCO4)Cc3nnnn3Cc3ccco3)c(=O)[nH]c2c1,24,1.5,x,u,29,-5,-21,7.9,0,-0.7

# Source: PubChem BioAssay (several laboratories)
